Mtb betalactam – beta-lactam sensitization of Mtb H37Rv; M. tuberculosis H37Rv growth with meropenem, percent inhibition; hits of this screen are not shown here; inhibition, % at 25 µM; 330,000 tested, 0.27% active; AID 434955;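 active = about 74% or more and at least 40 points above the plate without the antibiotic, then above 30% in a dose series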;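 also: growth measured after seven days incubation then overnight dye step; 0% = bacteria only wells and 100% = bacteria with antibiotic; twin plates without the antibiotic show which effects depend on it; some results filed as inactive read as strong as hits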
YopH PTP inh – inhibitors of Yersinia enterocolitica YopH tyrosine phosphatase. fluorescence Ex485/Em525. inhibition, %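 (about 10 µM by stock and volumes)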. 140,000 tested, 0.16% active. AID 898;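 active = inhibition of 50% or more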;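 also: controls were vehicle for no effect and minimum signal wells for full effect; inactives centre near -20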
Mtb growth – M. tuberculosis H37Rv growth inhibitors, H37Rv strain (AID 1626); one-dose inhibition, % at 10 µM; IC50 in µM for titrated hits; 220,000 tested, 0.95% active; M. tuberculosis H37Rv growth inhibition; higher % means a stronger effect;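 active = confirmed in a dose series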;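 also: bacteria incubated seven days before Alamar blue readout; 0% = bacteria only wells and 100% = bacteria with antibiotic wells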
RecA intein inh – blocks M. tuberculosis RecA intein splicing | cell-free RecA intein splicing, fluorescence | inhibition, %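 (about 9 µM by stock and volumes)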 | 290,000 tested, 0.75% active; in the data active = inhibition above about 30%;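 also: 0% = vehicle wells and 100% = reference inhibitor control wells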
Target sequence (P9WHJ3 whole entry, looked up): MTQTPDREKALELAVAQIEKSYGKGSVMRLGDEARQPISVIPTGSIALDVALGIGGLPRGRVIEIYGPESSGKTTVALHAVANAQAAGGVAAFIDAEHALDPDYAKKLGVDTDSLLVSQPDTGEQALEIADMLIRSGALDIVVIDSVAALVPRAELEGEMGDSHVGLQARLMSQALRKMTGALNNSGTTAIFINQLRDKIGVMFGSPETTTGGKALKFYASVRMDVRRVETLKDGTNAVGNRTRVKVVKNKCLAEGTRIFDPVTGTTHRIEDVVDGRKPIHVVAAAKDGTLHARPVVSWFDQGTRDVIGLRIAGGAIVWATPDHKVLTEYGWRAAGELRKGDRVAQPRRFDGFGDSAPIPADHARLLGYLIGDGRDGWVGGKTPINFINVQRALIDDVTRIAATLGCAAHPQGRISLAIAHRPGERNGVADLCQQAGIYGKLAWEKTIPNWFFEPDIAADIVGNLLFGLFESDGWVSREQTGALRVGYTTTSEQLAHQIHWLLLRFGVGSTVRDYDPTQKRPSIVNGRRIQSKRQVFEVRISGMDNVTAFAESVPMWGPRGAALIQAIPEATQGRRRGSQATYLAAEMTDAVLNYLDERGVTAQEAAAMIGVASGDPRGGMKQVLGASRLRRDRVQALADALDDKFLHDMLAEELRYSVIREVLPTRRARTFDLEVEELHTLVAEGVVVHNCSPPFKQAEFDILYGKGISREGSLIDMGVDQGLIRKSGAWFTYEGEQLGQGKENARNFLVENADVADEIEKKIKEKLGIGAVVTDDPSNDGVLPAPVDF
Arbovirus anti – blocks arbovirus infection. arbovirus infection cell-based antiviral screen. 200,000 tested, 0.37% active. inhibition, % at 10 µM;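 active = inhibition from about 30%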;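 also: bluetongue infection of BSR cells; cell survival read as ATP light after 72 h; 0% = infected wells without compound and 100% = uninfected wells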
Arbovirus anti repeat – also measured in Arbovirus anti; calls as there; inhibition, %; measured here: 10K subset replicate screen; many hits read low in the repeat;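 first of two repeat runs on a subset; 0% = infected and 100% = uninfected wells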
* marks the source's active call; other numbers are inactive results; . = no result given.

SMILES	Mtb betalactam	YopH PTP inh	Mtb growth	RecA intein inh	Arbovirus anti	others
CN1CCN(CC(=O)Nc2nnc(-c3cccs3)s2)CC1	-4.3	-19.0	0.8%	5.2	10.1
CNC(=O)Nc1ccccc1C(=O)NCc1ccccc1	8.3	-18.3	-13.9%	-0.6	7.3
S=C(NCCN1CCOCC1)NC1CCCC1	2.0	.	-8.5%	-1.4	3.9
c1ccc(-c2nn3c(C4CCCCC4)nnc3s2)nc1	2.0	-39.1	-12.7%	-0.4	6.6
Cc1coc2c1c(C)cc1oc(=O)c(CC(=O)NCCCN3CCCC3=O)c(C)c12	-6.4	.	.	2.3	.
CC1CN(C(=O)CSc2nnc(-c3ccc(Cl)cc3)n2C)CC(C)O1 (centres undefined)	4.2	10.2	-5.3%	-1.0	5.3
CCOC(=O)N1CCN(C2CC(=O)N(c3ccc(Oc4ccccc4)cc3)C2=O)CC1 (centres undefined)	-2.8	-16.6	-1.9%	0.9	1.3
Cc1noc(C)c1/C=N/Nc1ccc2ccccc2n1	18.6	.	1.2%	-5.8	-1.2
CCC(C)NS(=O)(=O)c1ccc(OC)c(Cl)c1Cl (centres undefined)	-7.4	-44.2	-3.7%	.	-1.1
CC1(C)CC(N2CCCCC2)=CC(=[N+]2CCCCC2)C1	-8.9	.	-2.1%	0.3	10.0
O=C(NN1CCOCC1)c1ccc(Cl)cc1[N+](=O)[O-]	6.7	.	.	-1.4	.
CC(C)CC(=O)NC(NC(=S)Nc1sc2c(c1C#N)CCCC2)C(Cl)(Cl)Cl (centres undefined)	4.4	-14.7	3.3%	5.5	-5.1
CCC(C(=O)NC(C)(C)C)N(C(=O)Cn1nnc(-c2ccccc2F)n1)c1cnc2ccccc2c1 (centres undefined)	2.4	.	-6.1%	-2.0	13.7
C=CCn1c(SC(F)F)nc2scc(-c3ccco3)c2c1=O	1.0	.	.	15.0	.
CCCCCC(C)n1[nH]c(=O)c2c(C)cc(C)nc21 (centres undefined)	4.6	.	5.8%	-4.5	6.8	Arbovirus anti repeat=2.2
Cc1onc(-c2c(Cl)cccc2Cl)c1C(=O)Nc1ccc2c(c1)OCCO2	-6.8	-39.6	6.4%	.	-3.8
O=C(NC1CCCCC1)C(c1ccc(O)cc1)N(C(=O)c1cnccn1)c1cccc(F)c1 (centres undefined)	1.3	.	.	1.5	.
Cc1occc1C(=O)NNC(=O)c1ccc(F)cc1	-9.4	-1.9	-10.1%	-3.6	0.9
O=C(Nc1ccc(O)c2c(=O)cc(-c3ccccc3Cl)oc12)c1ccc(Cl)cc1Cl	-6.9	.	-0.6%	0.7	.
NC(=O)Cn1ccc(O)c(Cc2ccc(Cl)cc2Cl)c1=O	-5.7	.	.	-1.0	.
O=C(NCc1ccccc1)C(c1ccncc1)N(C(=O)c1ccccn1)c1ccccc1 (centres undefined)	5.9	.	.	0.4	.
O=C(NCc1ccc2c(c1)OCO2)c1ccc(CN2CCc3ccccc3C2)cc1	-3.3	-8.9	9.2%	2.5	-5.5
Cc1ccc(S(=O)(=O)N(C)C)cc1NC(=O)COC(=O)CSc1ccccc1	13.3	.	.	0.5	.
CCC(=O)NC(=S)NNC(=O)c1ccccc1[N+](=O)[O-]	7.6	.	-3.4%	6.0	4.0
O=C(CCCn1c(=O)c2sccc2n(Cc2ccc(F)cc2)c1=O)NCc1ccco1	-10.1	-2.3	2.1%	-6.3	-17.6
CCCCN(C(=S)SC)C1CCS(=O)(=O)C1 (centres undefined)	-5.4	.	-10.5%	0.4	.
COc1ccc(C2CC(c3ccccc3)=NN2C(=S)Nc2ccccc2)cc1 (centres undefined)	7.0	.	9.8%	-7.0	15.0
Cn1c(CCN2CCN(c3ccccn3)CC2)nc2cc(NS(=O)(=O)c3ccc(Cl)cc3)ccc21	88.2	.	.	1.9	.
CCn1c(COc2cc(C)cc(C)c2)nnc1SCC(=O)N1CCN(c2ccccc2)CC1	-15.9	-41.7	-6.5%	-2.0	-13.6
O=S(=O)(c1cccs1)N1CCN(c2ccccc2)CC1	-1.1	.	.	1.8	.
O=C(NCC(c1ccco1)N1CCN(c2ccccc2)CC1)c1cccs1 (centres undefined)	-6.2	.	.	2.6	.
Cc1ccc(CN2CCCN(Cc3ccc(Cl)cc3)S2(=O)=O)cc1	-1.7	.	.	0.7	.
CC1=C(C)C(OCCBr)N(c2cc(O)c(Cl)cc2F)C1=O (centres undefined)	-0.8	.	2.3%	2.4	.
C=CCN(CC=C)C(=O)C[n+]1ccc(C(N)=O)cc1	1.1	.	-8.7%	-1.1	.
COc1cccc(C(C(=O)NC2CCCCC2)N(C(=O)c2ccco2)c2ccccc2OC)c1 (centres undefined)	5.9	.	.	2.5	.
O=C(C1CC12CCCC2)N1CCC(CO)(Cc2ccccc2Cl)CC1 (centres undefined)	1.4	.	-5.4%	1.3	-8.6
COc1ccc(C(=O)NCCSCc2ccccc2C)cc1	11.4	-36.2	-2.2%	1.8	-3.2
CCn1cc(/C=C(\NC(=O)c2ccc(OC)c(OC)c2)C(=O)N2CCOCC2)c2ccccc21	-7.0	.	.	4.1	.
Cc1cccc(N2CCN(C(=O)c3cc(S(=O)(=O)N4CCOCC4)cn3C)CC2C)c1 (centres undefined)	3.2	.	.	-1.5	.
CC1CCc2sc3c(c2C1)c(=O)n(CC(=O)O)c(=O)n3Cc1ccc(Cl)cc1 (centres undefined)	0.9	.	.	2.9	.
O=C(Nc1ccc(Cl)cc1)Nc1ccc(N2CCOCC2)cc1	-3.3	-18.1	-5.5%	-1.9	-3.0
O=C(COc1ccc(Br)cc1)N1CCCCCC1	3.9	-51.9	-11.2%	1.2	.
CC(=O)Nc1ccc(S(=O)(=O)N2CCN(CC(=O)NC3CCCC3)CC2)cc1	2.2	-38.9	-12.4%	-0.6	5.0
CCOc1ccccc1OCCCOc1ccc([N+](=O)[O-])cc1Cl	57.9	-21.5	4.8%	9.5	-3.2
CS(=O)(=O)Nc1ccc2c(c1)nc1n2CCOC1	-8.2	-3.7	-7.9%	-0.9	-1.8
Cc1ncn(-c2ccc(C(=O)Oc3ccccc3)cn2)n1	97.6	.	12.3µM*	0.6	2.5
CC1(C)CNC(=O)C=C(c2ccccc2)C1	-4.4	-7.8	-11.9%	1.3	11.5
COc1ccc(NC(=O)c2cc(SC)ccc2Cl)cc1	-1.4	-32.7	4.3%	0.5	1.3
COc1ccc(S(=O)(=O)Oc2ccc3c(c2)O/C(=C\c2cccnc2)C3=O)cc1	98.9	-27.4	2.34µM*	-1.6	0.4
COc1cc(C(=O)NNC2=CC(=O)CC(C)(C)C2)cc(OC)c1OC	2.7	-1.8	-1.9%	-2.1	-14.7
Oc1c(Cl)cc(CN2CCCCC2)c2cccnc12	98.3	.	.	5.8	.
CCOC(=O)N1CCC(NC(=O)CN2C(=O)CCSc3ccccc32)CC1	-3.6	-22.3	-10.2%	.	-0.9	Arbovirus anti repeat=2.0
O=C(NC1CCCCC1)c1ccc(CNc2nc(=S)[nH]c3ccccc23)cc1	-7.2	.	1.1%	.	-6.4
COc1cc(C2CC(=O)NC3=C2C(=O)CC(C)(C)C3)ccc1O (centres undefined)	.	-13.3	-1.4%	-3.8	14.1
NNC(=O)c1ccc(N2CCc3ccccc32)c([N+](=O)[O-])c1	-0.2	.	-12.7%	4.5	-20.8
Brc1ccc(C2=Nn3c(nnc3-c3cccnc3)SC2)s1	1.4	-20.1	53.6%	0.1	-3.0
CN(C(=O)COC(=O)CNC(=O)CNC(=O)c1ccc(Cl)cc1Cl)c1ccccc1	4.9	.	-3.2%	-0.8	-0.9
O=P(O)(O)c1ccccc1OCCCCCOc1ccccc1P(=O)(O)O	9.7	-41.5	-1.4%	.	0.3
N#CCN1CCN(CC(=O)Nc2ccc(OCc3ccccc3)cc2)CC1	9.7	2.5	5.0%	1.9	-11.6
COc1ccc(N2CCCn3c2nc2c3c(=O)n(Cc3ccccc3)c(=O)n2C)c(OC)c1	-5.9	.	2.3%	-0.5	23.9

Going on with the list:
SMILES	Mtb betalactam	YopH PTP inh	Mtb growth	RecA intein inh	Arbovirus anti	others
CCOC(=O)C1CCCN(S(=O)(=O)Cc2ccccc2Cl)C1 (centres undefined)	6.5	.	.	-6.6	.
CCOC(=O)C1C(C#N)=C(N)OC(C)=C1c1ccncc1 (centres undefined)	-4.8	-1.2	-0.8%	8.3	-2.1
CCCCc1ccc(NC(=O)CSc2nc(=O)n(CCN(C)C)c3c2CCC3)cc1	-5.1	.	.	4.6	.
COc1ccc(Cc2nnc(NS(=O)(=O)c3ccc(NC(C)=O)cc3)s2)cc1	-5.3	.	.	-0.2	.
CC(C)n1c(/C=C/[C@@H](O)C[C@@H](O)CC(=O)O)c(-c2ccc(F)cc2)c2ccccc21	-0.5	.	.	0.1	.
Cc1cc2c(cc1C)N(Cc1ccccc1)C1=NCCCN12	-9.9	.	11.9%	0.1	.
O=C(Cc1cccc2ccccc12)Nc1ccccc1	31.4	.	.	1.1	.
O=C(NCc1ccccn1)C(=O)Nc1nc(-c2ccccc2)cs1	83.2	.	76.0%	6.0	.
CCOC(=O)C1=C(C)OC(N)=C(C#N)C1c1cc2c(cc1[N+](=O)[O-])OCO2 (centres undefined)	2.9	.	5.5%	-7.4	-0.7
NC1=NC[C@H](Cc2ccccc2)N1CC1CCCCC1	-10.0	.	-8.5%	0.5	.
Cc1cc(C)nc(NC(=O)C(c2ccccc2)c2ccccc2)c1	3.2	-23.4	22.6%	-2.0	16.5
COc1cc(C(CCN2CCCC(C)C2)c2c(OC)cc(OC)c3c(-c4ccccc4)cc(=O)oc23)cc(OC)c1OC (centres undefined)	99.0	.	71.0%	12.0	.
CCN(CC(=O)Nc1c(F)cccc1F)C(=O)COc1ccc2c(C)cc(=O)oc2c1	-8.9	.	-5.5%	.	-0.2
O=C(N/N=C/c1ccc(OCc2ccccc2)cc1)c1ccco1	-1.8	.	-3.3%	0.5	.
O=C(COC(=O)C1CCN(/C=C/C(=O)C(F)(F)F)CC1)Nc1cccc(F)c1	-0.6	-10.0	7.6%	3.7	6.8
Nn1c(SCC(=O)Nc2ccccc2)nnc(Cc2ccccc2)c1=O	-8.6	.	.	-0.4	.
Cn1c(=O)c2ccccc2n(Cc2ccccc2F)c1=O	1.4	-9.8	3.4%	-0.2	5.0
CCN1C=C(Cc2ccc(F)cc2)C2=C(C1)C(c1ccc(F)cc1)C(C#N)=C(N)O2 (centres undefined)	1.6	-24.6	7.8%	11.4	-3.0
Cc1ccccc1-n1c(O)c(/C=N/N2CCCCC2c2cccnc2)c(=O)[nH]c1=O (centres undefined)	-2.6	-13.8	-0.5%	2.2	1.1
COC(=O)CSc1nc2c(c(-c3ccco3)c1C#N)CCCC2	99.3	-28.1	3.08µM*	2.6	-1.1

Compounds shown so far that contain an aryl thioether with sulfur outside any ring:
SMILES	Mtb betalactam	YopH PTP inh	Mtb growth	RecA intein inh	Arbovirus anti	others
CC1CN(C(=O)CSc2nnc(-c3ccc(Cl)cc3)n2C)CC(C)O1 (centres undefined)	4.2	10.2	-5.3%	-1.0	5.3
C=CCn1c(SC(F)F)nc2scc(-c3ccco3)c2c1=O	1.0	.	.	15.0	.
Cc1ccc(S(=O)(=O)N(C)C)cc1NC(=O)COC(=O)CSc1ccccc1	13.3	.	.	0.5	.
CCn1c(COc2cc(C)cc(C)c2)nnc1SCC(=O)N1CCN(c2ccccc2)CC1	-15.9	-41.7	-6.5%	-2.0	-13.6
COc1ccc(NC(=O)c2cc(SC)ccc2Cl)cc1	-1.4	-32.7	4.3%	0.5	1.3
CCCCc1ccc(NC(=O)CSc2nc(=O)n(CCN(C)C)c3c2CCC3)cc1	-5.1	.	.	4.6	.
Nn1c(SCC(=O)Nc2ccccc2)nnc(Cc2ccccc2)c1=O	-8.6	.	.	-0.4	.
COC(=O)CSc1nc2c(c(-c3ccco3)c1C#N)CCCC2	99.3	-28.1	3.08µM*	2.6	-1.1

Next entries
SMILES	Mtb betalactam	YopH PTP inh	Mtb growth	RecA intein inh	Arbovirus anti	others
Cc1cc(NC(=O)c2cccnc2)ccc1NC(=O)c1cc2ccccc2o1	0.7	.	.	-0.2	.
CC1=NOC(=O)/C1=C\c1ccc(-c2cc(Cl)ccc2Cl)o1	79.7	-12.6	55.7%	1.4	-42.2
CC(c1ccccc1)n1c(CO)nc2ccccc21 (centres undefined)	4.3	.	.	1.8	.
CCc1ccc(NC(=O)CCS(=O)(=O)c2ccc(Cl)cc2)cc1	46.9	.	.	1.3	.
COC(=O)Nc1nnc(COc2cccc(C)c2)s1	4.0	.	-7.0%	-3.0	-9.2
CCN1CCN(c2ncc(C(=O)Nc3cc(Cl)c(OC)cc3OC)c3ccccc23)CC1	.	-14.2	-0.5%	-0.9	1.0
Cc1cc(N2C(=O)CC(N3CCC(n4c(=O)[nH]c5ccccc54)CC3)C2=O)no1 (centres undefined)	-1.8	-13.5	1.3%	0.3	-2.1
COc1ccc2[nH]c(C)c(CCNCc3cc(OC)c(OC)c(OC)c3)c2c1	-6.5	.	-3.3%	-2.1	-0.8

Source: PubChem

A portion of the library; count on the stated rates, not on these rows.
